# PrP UTR inh = suppresses PrP 5' UTR mRNA reporter expression | cell-based PrP 5' UTR mRNA reporter, plate reader | inhibition, % (test concentration not listed) | 0.35% of 340,000 active;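 active = every replicate at 50% or more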;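 note: 0 = median of the neutral control wells; tested in H4 reporter cells; numbers are from one replicate; inactives centre near -14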
# Mtb hypoxia rep = Mtb hypoxia fluorescent reporter inhibition. AID 1159583. fluorescence inhibition, % (concentration not given with the values). 0.1% of 300,000 active. M. tuberculosis hypoxia-regulated fluorescent reporter, fluorescence;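 active = 35 to 45% if threefold the growth effect, above 45% if 1.5-fold the growth effect; inactive = the rest, general growth blockers included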;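 note: wells of about 50 µL received 100 nL stock; 0% = vehicle wells and 100% = reference inhibitor wells; whole bacteria with a GFP reporter of the hypoxia response; strong numbers were not always called active; many hits fall short of the cut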
# Sa RN4220 lethal = S. aureus RN4220 growth inhibition; OD600, 16 h; inhibition, % (test concentration not listed); 0.33% of 330,000 active; AID 1259311;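 active = z-score of -3 or lower and OD600 up to 0.18 on both plates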;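 note: plate controls were untreated cells for no effect and reference antibiotic for full effect; stock transfer was 100 nL into about 80 µL; one replicate is shown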
# ugtP null kill = compounds lethal to S. aureus RN4220 ugtP deletion mutant; OD600 growth, 16 h; some inactives read as strong as hits; growth inhibition, % (test concentration not listed); 0.54% of 330,000 active;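 active = z-score under -3 and OD600 up to 0.15 on both plates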;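 note: plate controls were untreated wells for no effect and antibiotic for full effect; wells of about 80 µL received 100 nL stock; the first replicate is given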
# BJeLR viability = BJeLR cell viability loss; inhibition, % (test concentration not listed); BJeLR (HRASV12) viability, CellTiter-Glo ATP luminescence, 48 h; reference of the scale not given here; 0.17% of 300,000 active; AID 1554;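 active = replicate mean above 50%; inconclusive = above 50% but judged a plate artefact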;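 note: 50 nL library stock added to about 25 µL; numbers are from one replicate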
# Bead autofluor = flagged as autofluorescent in microsphere protease counterscreen | AID 624483 | 3.1% of 360,000 active | compound autofluorescence counterscreen, microsphere flow cytometry; hits give high values | fluorescence intensity (no concentration beside the values);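 active = at least 3 SD above the mean of all compounds, about 16000 in these data; inconclusive = too few beads counted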;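 note: 100 nL of 1 mM stock went into each well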
# Mtb hypoxia rep growth = recorded beside Mtb hypoxia rep, whose call it bears; growth inhibition, %; measured here: M. tuberculosis growth (absorbance);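 0% = vehicle and 100% = reference antibiotic; read after six days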
# * hit, by the source's call; u = inconclusive; x = no result given; & = joins results of further samples.
# Below each SMILES – PrP UTR inh	Mtb hypoxia rep	Mtb hypoxia rep growth	Sa RN4220 lethal	ugtP null kill	BJeLR viability	Bead autofluor
- NC(=NOC(=O)CCCc1ccccc1)c1cccc([N+](=O)[O-])c1
  x	5.5	-1.2	1.9	3.0	x	x
- CC(C)SCCCCOc1ccc2ccccc2c1
  -29.8	4.2	12.2	6.6	80.8	-13.8	21736*
- CCOC(=O)C(CCCCCCC(NC(C)=O)(C(=O)OCC)C(=O)OCC)(NC(C)=O)C(=O)OCC
  -4.0	12.9	15.9	1.5	3.1	1.2	4356
- CC(=O)Nc1ccc(S(=O)(=O)N2CC(=O)NC(=O)C2)cc1
  -0.8	-2.9	-3.1	2.5	6.5	6.1	6535
- CCCCCOC(=O)c1ccc(NC(=O)c2cccc(NC(=O)c3ccccc3C(=O)O)c2)cc1
  -26.9	7.2	10.4	2.6	-4.9	-29.0	3662
- Fc1ccc(NC(=S)N2CCOCC2)cc1Cl
  -15.6	14.4	6.8	1.4	-0.6	4.5	4236
- Cc1ccc2c(c1)nnn2C1CCN(C(=O)c2ccccc2F)CC1
  -7.2	18.8	16.2	7.7	5.2	x	4494
- CC(NC(=O)c1nn(C)c(=O)c2ccccc12)c1ccccc1 (stereo unspecified)
  -15.5	-2.5	10.6	2.5	-3.2	-0.3	9616
- C#Cc1ccc(C2C=C(C(=O)OCC=C)OC(OCc3ccc(CO)cc3)C2)cc1 (stereo unspecified)
  x	6.1&2.3	0.8&8.1	7.3&11.0	3.7&4.6	x	x
- Cc1ccc(CSc2nnc(SCC(=O)N/N=C/c3ccccc3OCC(=O)O)s2)cc1
  18.7	x	x	x	x	-6.5	4474
- O=C1NC2(CCCCCC2)C(=O)N1Cc1ccccc1F
  -0.8	7.7	8.0	6.7	9.1	2.7	3754
- O=C(NN=Cc1ccc(C(=O)O)cc1)C1=NNC(c2ccccc2)(c2ccccc2)C1
  x	-4.6	12.5	1.3	11.6	x	x
- CC/C(=N\NC(=O)c1ccccc1Cl)c1c(O)n(C2CCCCC2)c(=O)[nH]c1=O
  -3.4	1.2	-0.1	4.3	2.1	-4.5	5085
- CCOc1ccc2nc(NC(=O)c3ccc(OC)c(S(=O)(=O)N4CCOCC4)c3)sc2c1
  0.7	-3.0	9.3	9.1	-14.4	-7.4	8179
- CS(=O)(=O)N(CC(=O)N1CCN(c2ccc(F)cc2)CC1)c1cccc(Cl)c1
  -12.5	3.5	0.1	3.0	10.3	9.1	16031
- Cc1cccc(NC(=O)CN(C)C(=O)c2ccc3ccccc3n2)c1C
  -8.0	1.0	-8.4	-0.1	5.7	x	u
- CC(=O)c1c(C)[nH]c(C(=O)OC2CCCCC2=O)c1C (stereo unspecified)
  -1.6	x	x	-1.2	5.9	-6.3	3094
- CC(C)CCn1cnc2c1c(=O)n(CC(=O)NC(N)=O)c(=O)n2Cc1ccccc1
  -23.4	6.5	8.6	2.4	1.0	-0.1	3800
- Cc1cccc(CC(=O)c2c[nH]c3ccccc23)c1
  -31.4	-1.3	-3.6	2.1	-12.8	-4.8	6149
- Cc1cccc(C(C)C)c1NC(=O)C1CCN(S(=O)(=O)c2ccccc2)CC1
  -4.7	1.4	9.8	0.5	0.1	0.1	u
- Cc1ccc(-c2cc(-c3ccccc3)cc(-c3ccccc3)[n+]2-c2ccccc2C(=O)O)cc1
  -14.9	20.8	25.1	5.0	-22.2	-0.9	4092
- Cc1cc(C)n(CC(=O)NNC(=O)c2ccc(NC(=O)CC#N)cc2)n1
  x	9.0	6.2	4.4	3.5	x	5544
- COc1ccc(C(=O)Nc2cc3c4c(c2)C(C)C(=O)N4CCC3)c(OC)c1 (stereo unspecified)
  -29.2	1.3	-3.0	0.5	4.8	8.9	x
- O=c1[nH]c2cc3c(cc2cc1CN(CCCO)C(=S)NCc1ccco1)OCO3
  0.9	0.4	-1.0	2.7	2.5	11.7	4683
- Cc1cc(OC(=O)c2ccc(S(=O)(=O)N3CCCC3)cc2)c([N+](=O)[O-])c(=O)[nH]1
  -9.2	-7.7	-1.4	-0.5	2.3	3.4	2219
- COc1ccccc1C/C(N)=N/OC(=O)c1cccc([N+](=O)[O-])c1C
  -13.4	12.7	1.3	7.3	10.0	0.4	2024
- CCOc1ccccc1NS(=O)(=O)c1ccc2oc(=O)ccc2c1
  -16.5	12.6	3.0	12.8	-0.9	4.9	3160
- Cc1ccc(NC(=O)CSc2ccc(-c3cccnc3)nn2)cc1Cl
  41.2	12.7	6.9	1.5	2.2	-0.9	4229
- COc1ccc(-c2nnc(SC(C)C(=O)Nc3cccc(Cl)c3)o2)cc1 (stereo unspecified)
  -100.2	4.1	3.4	1.6	1.0	1.5	3509
- Cc1cccc(C(=O)NCC(=O)OCC(=O)N2CCCCC2)c1
  -32.0	-1.6	-7.2	9.9	6.0	0.3	4253
- COC(=O)c1cnc(Nc2cccc(C(F)(F)F)c2)c([N+](=O)[O-])c1
  -41.2	7.0	5.9	5.3	10.7	-2.7	3653
- CC(=O)NCCc1nc2cc(NC(=O)c3cccs3)ccc2n1C
  -25.0	7.3	8.1	3.1	1.0	3.1	3830
- COCCCNS(=O)(=O)c1ccccc1
  x	6.6	10.4	2.0	4.0	-10.8	9458
- CC1(C)CC(=O)C2=C(C1)NC(Nc1nc3ccccc3o1)=NC21CCCCC1
  -24.7	-3.3	2.0	-8.4	-14.1	2.9	10819
- O=C1CCC/C1=c1\s/c(=C\c2cccnc2)c(=O)n1-c1ccccc1
  -14.9	x	x	x	x	-11.8	3057
- Cc1c(NC(=O)/C(C#N)=C/c2c(Oc3ccccc3)nc3ccccn3c2=O)c(=O)n(-c2ccccc2)n1C
  -23.3	-4.2	-9.4	3.5	3.2	-7.5	2896
- COc1ccc(Cc2nnc(SCC(=O)Nc3ccc(N4CCOCC4)cc3)o2)cc1
  0.4	9.6	7.6	0.8	6.1	-11.2	5501
- CCOc1ccc2nc(NC(=O)CN3CCN(CC)CC3)sc2c1
  -81.4	7.7	0.5	5.8	14.3	11.2	4095
- COCCCn1c(=C(C#N)C(N)=O)sc(=Cc2ccccc2OC(F)F)c1=O
  x	-3.2	-3.4	1.2	-3.2	x	x
- COc1cc(OC)cc(-c2c(C#Cc3ccsc3)c3cc(-c4ccc(C(N)=O)cc4)ccc3n2C)c1
  -46.4	1.8	4.9	-0.4	-5.8	x	3822
- C=CCn1c(-c2cc(-c3ccc(C)cc3)nc3ccccc23)n[nH]c1=S
  -39.1	-20.5	-10.3	2.7	-3.3	2.3	4029
- COc1ccc(S(=O)(=O)N2CCCC(C(=O)NCCC(C)C)C2)cc1 (stereo unspecified)
  -16.3	11.7	3.4	0.9	-3.2	10.8	5189
- CCc1nc(SCC(=O)Nc2nccs2)c2oc3ccccc3c2n1
  -5.9	x	x	3.7	-1.2	-0.6	2584
- CC(=O)Nc1ccc(S(=O)(=O)NC2=C(N3CCN(c4ccc(F)cc4)CC3)C(=O)c3ccccc3C2=O)cc1
  -35.1	5.3	3.8	26.4	6.6	18.6	2185
- Cc1ccc(-n2nnnc2SCC(=O)NC2CCCc3ccccc32)cc1 (stereo unspecified)
  2.5	-1.9	-1.2	3.8	-6.6	-21.6	10716
- CN(Cc1cn(C)nc1-c1ccccc1F)Cc1nccn1C
  -10.7	12.8	3.0	8.1	7.2	-3.3	4176
- O=C(O)c1ccc(/C=N/Nc2ccc(C(F)(F)F)cn2)cc1
  -94.5	x	x	x	x	1.8	4457
- COc1ccc(NC(=O)c2cc3ccccc3oc2=O)c(OC)c1
  -48.3	12.4	7.5	6.0	-0.1	5.6	3915
- OCCN1CCN(CCCN2c3ccccc3Sc3ccc(C(F)(F)F)cc32)CC1
  -13.1	15.6	12.8	-1.4	-6.4	-0.9	5452
- CC1=NN(c2ccccc2)C(=O)C1C(=O)c1ccc([N+](=O)[O-])cc1 (stereo unspecified)
  -20.1	4.6	6.4	25.3	4.9	-1.7	2569

# Next compounds follow.
# Below each SMILES – PrP UTR inh	Mtb hypoxia rep	Mtb hypoxia rep growth	Sa RN4220 lethal	ugtP null kill	BJeLR viability	Bead autofluor
- COc1ccc(CNC(=S)NC(C)CCc2ccccc2)cc1 (stereo unspecified)
  -7.0	-5.6	0.2	17.2	-0.1	2.9	4192
- CCCCN(C(=O)CSc1n[nH]c(-c2ccc(C)cc2)n1)c1c(N)n(CCCC)c(=O)[nH]c1=O
  -4.7	-2.4	2.0	0.8	3.6	-7.0	u
- C=CCn1c(N2CCCCCC2)nc2c1c(=O)[nH]c(=O)n2C
  -2.2	-1.8	5.5	3.0	-2.0	-3.2	8483
- O=C(Cc1cc(=O)[nH]c(=O)[nH]1)NCc1ccc(Cl)cc1
  -27.9	1.9	2.8	0.2	0.5	9.2	5692
- CNS(=O)(=O)c1cc(-c2nnc(Nc3ccc(NC(C)=O)cc3)c3ccccc23)ccc1C
  -12.0	8.3	7.0	3.9	19.0	5.4	3571
- CN(C(=O)c1ccc(COc2ccccc2Br)o1)c1ccccc1
  -29.3	3.1	3.2	9.3	-2.1	-1.3	2053
- Fc1cccc(-c2nn[nH]n2)c1
  -5.2	x	x	0.2	0.5	3.4	2104
- CN1CCN(C(=O)C2=CC(C3CCCCC3)CC(OCCCCO)O2)CC1 (stereo unspecified)
  x	8.0	7.7	7.7	4.8	x	x
- O=C(NCc1ccco1)/C(=C\c1ccco1)NC(=O)c1ccccc1Cl
  -33.1	21.0	3.6	5.1	-0.5	-5.8	4213
- COc1ccc(N=NC2=C(O)CC(C)(C)CC2=O)cc1
  -36.0	x	x	6.0	17.8	-1.6	2558
- O=C(NCc1ccncc1)C(=O)Nc1nccs1
  -22.8	-11.8	10.9	-2.1	0.4	-2.4	x
- NC(=O)C1CCN(CC(=O)Nc2ccccc2Sc2ccccc2)CC1
  -6.9	-2.1	3.3	7.6	3.9	9.7	2962
- Cc1nc2ccccc2c(=O)n1-c1ccc(F)c(NC(=O)c2cccs2)c1
  -15.8	0.6	0.5	5.2	11.1	3.4	x
- CCC1(c2ccccc2)NC(=O)N(CC(=O)Nc2ccc(OC)nc2)C1=O (stereo unspecified)
  -1.4	x	x	x	x	10.7	5884
- Cc1cnnc2ccc3c(no[n+]3[O-])c12
  -17.9	x	x	-0.1	-8.8	-2.2	2756
- CN(CC(=O)NCCCN1CCOCC1)S(=O)(=O)c1ccc(Br)cc1
  -8.9	-0.8	3.6	3.5	4.1	1.4	3116
- CCCCNC(=O)CSc1nnc(-c2ccco2)n1C
  -9.7	x	x	-0.7	14.7	-0.2	3486
- CC(C)n1c(-c2ccccc2F)n[nH]c1=S
  -11.9	-2.7	1.4	6.4	17.4	-4.7	7716
- CN(CC(=O)Nc1ccccc1C(F)(F)F)C(=O)Cc1ccccc1F
  -23.7	11.1	-4.3	-0.7	5.0	-9.8	4103
- CCOc1ccc(N(CC(=O)NCc2ccc(F)cc2)C(=O)c2snc(C(N)=O)c2N)cc1
  -7.4	5.2	5.8	5.8	3.4	-13.3	3384
- CSc1ccc(NC(=O)Nc2cc(C)ccn2)cc1
  20.3	18.6	3.2	3.4	10.1	-2.4	3144
- COc1ccc(C(=O)NC(=S)NNC(=O)c2ccc(C)cc2)cc1
  -14.1	4.8	8.0	71.9	55.0	2.2	3849
- O=C1CCCC2=C1C(c1cccc(O)c1)C1=C(N2)c2ccccc2C1=O (stereo unspecified)
  -20.0	8.1	-0.3	-1.2	1.6	-7.8	3432
- CN(C)CCCNc1nc(N)c([N+](=O)[O-])c(NCCO)n1
  -27.9	-4.4	-0.7	-3.2	-5.5	8.4	5203
- CC(NC(=O)c1ccc2ccccc2n1)c1ccccc1 (stereo unspecified)
  -15.8	3.6	15.4	3.1	-1.6	10.1	3479
- CN1CCN(CCCc2c3c(cc4c2CCC4)CCC3)CC1
  -9.1	12.5	4.7	2.5	4.2	-1.3	11527

# 3 compounds out of the list, ordered by molar mass, low to high:
# Below each SMILES – PrP UTR inh	Mtb hypoxia rep	Mtb hypoxia rep growth	Sa RN4220 lethal	ugtP null kill	BJeLR viability	Bead autofluor
- CSc1ccc(NC(=O)Nc2cc(C)ccn2)cc1
  20.3	18.6	3.2	3.4	10.1	-2.4	3144
- CC(NC(=O)c1ccc2ccccc2n1)c1ccccc1 (stereo unspecified)
  -15.8	3.6	15.4	3.1	-1.6	10.1	3479
- CN(C)CCCNc1nc(N)c([N+](=O)[O-])c(NCCO)n1
  -27.9	-4.4	-0.7	-3.2	-5.5	8.4	5203
